From PubChem
Six1-Eya2 blk – Six1/Eya2 interaction inhibition; activity change, % (concentration not given with the values); AlphaScreen GST-Six1/His-Eya2 binding, biochemical; active compounds read low; control for the full effect not named in the record; Q15475+O00167; AID 651725; hit rate 0.56% among 360,000; in the data active = activity change below about -65%; inconclusive = about -30% to -65%; inactive = above about -30%; further: on the % scale 0 is the no-effect control and ±100 the full control effect
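GST-Six1 + His-Eya2 (5X stock: 250/500 nM); Tris pH 8.0, 300 mM NaCl, 0.05% BSA, 0.02% Tween 20; GSH donor/Ni acceptor beads; 1 h 37 °C dark; AlphaScreen readout.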
TRPML1 blocker – blocks the human TRPML1 channel. hit rate 0.02% among 390,000. Q9GZU1. activity change, negative = inhibition, % (no concentration beside the values). AID 624415. TRPML1-inducible cells, Ca2+ dye fluorescence, FDSS; active compounds read low; inhibition of EC80 agonist-evoked calcium signal; in the data active means activity change below about -50%; inconclusive means about -30% to -50%; inactive means above about -30%;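 further: stimulus is agonist 54-4 at its EC80 concentration; on the % scale 0 is the no-effect control and ±100 the full control effect; compound concentration not given in the record; the text of the record puts the active cut at -80%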
Target sequence (Q9GZU1 whole entry, looked up): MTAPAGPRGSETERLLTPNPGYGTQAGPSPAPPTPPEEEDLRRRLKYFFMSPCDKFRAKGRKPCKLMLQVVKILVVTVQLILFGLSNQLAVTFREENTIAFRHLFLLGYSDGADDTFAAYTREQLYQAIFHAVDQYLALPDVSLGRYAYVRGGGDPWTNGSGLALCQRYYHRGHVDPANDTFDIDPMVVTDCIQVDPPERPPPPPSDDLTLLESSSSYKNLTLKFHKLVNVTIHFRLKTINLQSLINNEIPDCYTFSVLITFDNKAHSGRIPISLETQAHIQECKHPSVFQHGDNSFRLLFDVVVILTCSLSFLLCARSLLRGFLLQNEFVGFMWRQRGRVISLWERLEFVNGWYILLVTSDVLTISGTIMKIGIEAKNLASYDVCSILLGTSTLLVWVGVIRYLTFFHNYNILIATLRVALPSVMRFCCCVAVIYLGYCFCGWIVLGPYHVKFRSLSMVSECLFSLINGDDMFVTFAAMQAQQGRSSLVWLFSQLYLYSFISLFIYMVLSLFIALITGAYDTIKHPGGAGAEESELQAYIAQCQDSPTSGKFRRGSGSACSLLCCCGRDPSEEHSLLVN
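Tet-induced TRPML1-DL cells loaded with Ca8 no-wash calcium dye were read kinetically on FDSS. Compound addition was followed by EC80 agonist 54-4 (4 uM final); inhibition was read over 110 s.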
TRPML1 agonist – human mucolipin-1 channel agonism; activation, % (no concentration beside the values); Q9GZU1; hit rate 0.12% among 410,000; TRPML1-expressing cells, Ca2+ dye fluorescence, FDSS; host cell line not named in the record; reference of the full effect not given here; in the data active = activation above about 50%; inconclusive = about 30% to 50%; inactive = below about 30%; further: 0% is about no effect; the text of the record puts the active cut at 80%
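Tet-induced TRPML1-DL cells, 1,500 per well, cultured overnight, were loaded with a no-wash Ca2+ dye for 45–90 min. Calcium fluorescence was recorded on the FDSS for 110 s after compound addition, before the EC80 agonist (4 uM 54-4) was added.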
D2 agonist – agonists of human D2 dopamine receptor (beta-arrestin); P14416; DiscoveRx PathHunter D2 beta-arrestin, luminescence, 90 min; 100% = 57 uM dopamine signal; activation, % (test concentration not listed); hit rate 0.084% among 360,000; AID 624465; in the data active = activation above about 40%; inconclusive = about 15% to 40%; inactive = below about 15%; further: compound concentration not given in the record; the text of the record calls up to 30% inactive
Target sequence (P14416 whole entry, looked up): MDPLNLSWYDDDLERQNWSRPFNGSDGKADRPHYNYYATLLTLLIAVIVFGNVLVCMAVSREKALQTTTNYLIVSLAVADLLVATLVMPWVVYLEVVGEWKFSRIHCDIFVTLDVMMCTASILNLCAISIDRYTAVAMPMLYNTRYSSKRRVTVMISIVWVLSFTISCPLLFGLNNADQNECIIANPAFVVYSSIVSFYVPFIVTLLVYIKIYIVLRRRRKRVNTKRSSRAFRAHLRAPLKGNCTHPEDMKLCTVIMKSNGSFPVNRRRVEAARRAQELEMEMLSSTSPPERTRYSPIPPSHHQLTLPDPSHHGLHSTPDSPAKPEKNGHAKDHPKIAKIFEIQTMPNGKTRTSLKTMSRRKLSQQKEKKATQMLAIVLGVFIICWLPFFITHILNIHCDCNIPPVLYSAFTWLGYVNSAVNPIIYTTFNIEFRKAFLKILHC
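Agonist mode: compounds alone added to overnight-plated D2 PathHunter cells for 90 min at 37 C, with 57 uM final dopamine (EC100) defining full response. Beta-arrestin recruitment detected by chemiluminescent reagent, read after 1 h at ambient temperature.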
PINK1 expr mod – PINK1 expression modulation; PINK1 immunofluorescence, high-content cytometry, 24 h; Potency, µM (series often up to 76.6 µM), for inactives: at the top dose activation (PINK1 increase), most hits filed as activators; hit rate 0.2% among 410,000; active = well fitted activation curve with a large enough effect; inconclusive = small, poorly fitted or top-dose-only effect; inactive = flat fitted curve, though single readings scatter; cell line not stated here;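 further: potency means the concentration at half of the fitted maximal effect; % of control where 0% means no effect; nearly all actives have a fitted effect of over 65% in size; a mitochondrial uncoupler was the plate control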
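Measures PINK1 amount and localization on or inside mitochondria by immunofluorescence. Stable cells get compounds at 5 concentrations for 24 hours before fixation and staining; CCCP controls included.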
CtBP-E1A blk – blocks the CtBP interaction with E1A; AlphaScreen GST-E1A/His-CtBP binding, 1536-well; active compounds read low; control for the full effect not named in the record; AID 651724; hit rate 0.49% among 340,000; activity change, % (concentration not given with the values); in the data active means activity change below about -65%; inconclusive means about -30% to -65%; inactive means above about -30%; further: on the % scale 0 is the no-effect control and ±100 the full control effect
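Protein mix (5X: 125 nM each GST-E1A, His-CtBP) was incubated with pinned compound 2 h at 37 deg C in dark, in 50 mM Tris pH 8.0 buffer with 300 mM NaCl. Glutathione donor and nickel acceptor beads followed; AlphaScreen signal read after 1 h.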
* = called active by the depositor; ? = inconclusive; . = not tested or not shown; [ ] = another dose, or the depositor's remark. The order is random; 1% or so of the library scored in one or more.

cpd	smiles	Six1-Eya2 blk	TRPML1 blocker	TRPML1 agonist
1	CCCCN(CCCC)CCNC(=O)Cn1nc(C)n2c(cc3sccc32)c1=O	.	6	-0.3
2	c1ccc(-c2ccc(-c3nc(-c4ccncc4)no3)cc2)cc1	4	-10	-0.4
3	C=C(C)C(=O)OCC(O)COc1ccc(C(C)(C)c2ccc(OCC(O)COC(=O)C(=C)C)cc2)cc1 (stereo not drawn)	-10	10	1.0
4	O=C(CSCCO)Nc1ccc(C2CCCCC2)cc1	2	19	0.2
5	Cc1cc(NC(=O)COC(=O)C2CCC(=O)N2)c([N+](=O)[O-])cc1C (stereo not drawn)	-6	33	-0.6
6	O=C(NCc1ccccn1)[C@@H]1CCCN1C(=O)[C@@H]1CCCN1C(=O)c1c(F)cccc1F	6	.	-0.1
7	Cc1ccc(S(=O)(=O)N(CC(=O)N2CCCCCC2)c2ccccc2F)cc1	8	21	1.8
8	O=C(CC1SC(N2CCCCC2)=NC1=O)Nc1cccc(C(=O)Nc2ncccc2O)c1 (stereo not drawn)	-18	-1	1.2
9	CC(C)c1ccc(C(=O)Nc2nnc(S(=O)(=O)N3CCOCC3)s2)cc1	-2	0	-0.5
10	COC(=O)c1cccc(NC(=O)CC2NCCNC2=O)c1 (stereo not drawn)	6	3	-0.5
11	COc1cc(C(=O)Nc2ccc3c(c2)CCN3C(C)=O)cc(OC)c1OC	-4	-3	-0.2
12	CCCC1CCC(=NNC(=O)CNc2ccc(OC)cc2)CC1 (stereo not drawn)	-4	8	0.6
13	O=c1[nH]c2ccccc2c(O)c1-[n+]1ccccc1	-9	56	0.4
14	O=C(COC(=O)CC1CC2CCC1C2)Nc1ccccc1Cl (stereo not drawn)	22	6	0.5
15	COC(=O)c1cc(NC(=O)CSc2nnc(CN3CCOCC3)n2C)ccc1Cl	4	7	-0.4

cpd	D2 agonist	PINK1 expr mod	CtBP-E1A blk
1	.	-1.7%	.
2	1.7	.	9
3	-5.7	5.7%	?
4	-0.6	4.9%[38.3 µM]	6
5	-4.0	1.3%	4
6	.	-0.9%	10
7	2.5	0.0%	1
8	-1.6	-2.5%	-14
9	-2.4	3.4%	-2
10	-4.9	1.4%	.
11	-1.8	4.4%	-1
12	-2.5	2.7%	-24
13	0.2	1.3%	-16
14	-3.6	13%	4
15	-0.6	-1.1%	9

Another view of some results above.
2: c1ccc(-c2ccc(-c3nc(-c4ccncc4)no3)cc2)cc1
  Six1-Eya2 blk: 4
  TRPML1 blocker: -10
  TRPML1 agonist: -0.4
  D2 agonist: 1.7
  PINK1 expr mod: .
  CtBP-E1A blk: 9

3: C=C(C)C(=O)OCC(O)COc1ccc(C(C)(C)c2ccc(OCC(O)COC(=O)C(=C)C)cc2)cc1 (stereo not drawn)
  Six1-Eya2 blk: -10
  TRPML1 blocker: 10
  TRPML1 agonist: 1.0
  D2 agonist: -5.7
  PINK1 expr mod: 5.7%
  CtBP-E1A blk: ?

4: O=C(CSCCO)Nc1ccc(C2CCCCC2)cc1
  Six1-Eya2 blk: 2
  TRPML1 blocker: 19
  TRPML1 agonist: 0.2
  D2 agonist: -0.6
  PINK1 expr mod: 4.9%[38.3 µM]
  CtBP-E1A blk: 6

Later entries
cpd	smiles	Six1-Eya2 blk	TRPML1 blocker	TRPML1 agonist
16	Cc1ccccc1-c1ccc(C=Nc2c(C)n(C)n(-c3ccccc3)c2=O)o1	-20	0	0.3
17	COc1ccc(C(=O)NN2C(=O)C3C(c4ccccc4)C=CC(c4ccccc4)C3C2=O)cc1 (stereo not drawn)	-14	3	-0.2
18	CCCOc1ccc(/C(O)=C2/C(=O)C(=O)N(CCCn3ccnc3)C2c2ccc(C)o2)cc1 (stereo not drawn)	-4	13	0.2
19	COc1nn(CC(=O)N2N=C(C(F)F)CC2(O)C(F)F)cc1[N+](=O)[O-] (stereo not drawn)	0	10	-0.3
20	Cc1ccc(-n2ncc3c2CCCC3NC(=O)CSc2ccccn2)cc1C (stereo not drawn)	-1	28	0.9
21	COc1ccc(/C=C/C(=O)Nc2sc3c(c2C(=O)NCc2cccnc2)CCCC3)cc1	1	10	-0.6
22	Cc1ccc(CNC(=O)CN2CCN(Cc3ccc(C)cc3)C2=O)cc1	-1	5	-1.0
23	S=C(NCc1ccc2c(c1)OCO2)Nc1ccc(-c2nc3ccccc3[nH]2)cc1	-23	1	0.7
24	COc1ccc(-c2csc(-c3ccccc3)n2)c(OC)c1	29	5	-0.3
25	CC1(C(=O)NCCC(F)(F)F)Cc2c(-c3cccc(C(N)=O)c3)ccnc2O1 (stereo not drawn)	-11	39	-0.8
26	COc1ccccc1CNC(=O)Cc1ccc(C)cc1	1	-12	0.7
27	Cn1c(N)c(C(=O)COC(=O)CCc2nc3ccccc3s2)c(=O)n(C)c1=O	9	-2	0.0
28	COc1ccc(-c2nn(-c3ccccc3)cc2N)cc1	-12	-7	0.5
29	Clc1ccc(OCCCCCN2CCCC2)c(Br)c1	1	17	1.5
30	NNC(=O)c1nc[nH]c1C(=O)Nc1ccccn1	-15	12	0.6

cpd	D2 agonist	PINK1 expr mod	CtBP-E1A blk
16	-0.2	6.7%	-19
17	-3.5	-1.0%	-7
18	-2.0	-1.5%	-1
19	-1.7	0.4%[38.3 µM]	0
20	-3.6	-0.2%	0
21	-1.0	.	7
22	-3.7	1.2%	0
23	3.6	19%	-7
24	0.9	5.5%	.
25	9.1	3.1%	0
26	2.4	5.3%	.
27	-2.6	1.6%	-13
28	-2.9	0.6%	-12
29	1.2	2.0%	8
30	-1.7	0.3%	.

(list continues)
cpd	smiles	Six1-Eya2 blk	TRPML1 blocker	TRPML1 agonist
31	COc1ccc(-c2[nH]ncc2C(=O)NCc2ccccc2C)cc1	.	24	0.2
32	S=c1[nH]nc(CCSCc2ccccc2)n1-c1ccccc1	-2	-4	-0.5
33	NNc1nc2ccc(Cl)cc2s1	-21	-9	-0.7
34	COc1cc(/C=C(\C#N)c2ccccn2)ccc1OCc1ccccc1	20	56	0.2
35	COc1ccc(NC(=O)c2cccc(S(=O)(=O)N3CCN(c4ccccc4)CC3)c2)c(OC)c1	-19	12	-0.4
36	COc1ccc(-n2c(C)c(C(C)=O)c(C(C)=O)c2C)cc1	-4	-1	3.1
37	O=C(Cc1ccccc1)N[C@@H](Cc1ccccc1)C(=O)O	8	-13	0.1
38	O=Cc1cn(CC(=O)Nc2ccc(F)cc2)c2ccccc12	4	-20	0.1
39	c1ccc2c(c1)Sc1ccccc1-n1cnnc1-2	-8	-1	-1.0
40	COc1ccc(S(=O)(=O)N2CCOCC2)cc1NC(=O)CSc1nnc(C2CC2)n1C1CC1	-3	-8	1.0
41	O=C(Nc1cc(C(F)(F)F)ccc1Cl)C(Sc1nnc(-c2cccs2)o1)c1ccccc1 (stereo not drawn)	-3	10	2.8
42	COc1ccc(OC)c(C2CC(=O)c3c([nH]c(C(=O)OCC4CCCCC4)c3C)C2)c1 (stereo not drawn)	.	56	0.5
43	C/C(=N\Nc1ccc([N+](=O)[O-])cc1[N+](=O)[O-])C(C)(C)C(C(=O)O)C(=O)O	-9	-2	-1.9
44	Cc1ccc(Cl)cc1NC(=O)CC(O)(C(F)(F)F)C(F)(F)F	6	31	2.6
45	COc1ccccc1C1CN(c2ccc(F)cc2F)N=C1c1cccs1 (stereo not drawn)	99	21	1.7

cpd	D2 agonist	PINK1 expr mod	CtBP-E1A blk
31	.	1.0%	.
32	-3.5	0.4%	.
33	-4.8	2.4%	-28
34	-4.5	6.9%	21
35	1.3	-2.1%	-1
36	0.5	-2.7%[38.3 µM]	0
37	-7.5	0.5%	10
38	0.9	-1.2%	-5
39	-4.4	-1.1%	-3
40	-3.7	-1.8%	7
41	-2.2	1.8%	10
42	.	13%	.
43	-4.2	2.0%	4
44	0.1	.	9
45	-1.2	.	-11

Looked up by structure from the entries so far, 6 records:
cpd	smiles	Six1-Eya2 blk	TRPML1 blocker	TRPML1 agonist
33	NNc1nc2ccc(Cl)cc2s1	-21	-9	-0.7
37	O=C(Cc1ccccc1)N[C@@H](Cc1ccccc1)C(=O)O	8	-13	0.1
42	COc1ccc(OC)c(C2CC(=O)c3c([nH]c(C(=O)OCC4CCCCC4)c3C)C2)c1 (stereo not drawn)	.	56	0.5
41	O=C(Nc1cc(C(F)(F)F)ccc1Cl)C(Sc1nnc(-c2cccs2)o1)c1ccccc1 (stereo not drawn)	-3	10	2.8
44	Cc1ccc(Cl)cc1NC(=O)CC(O)(C(F)(F)F)C(F)(F)F	6	31	2.6
43	C/C(=N\Nc1ccc([N+](=O)[O-])cc1[N+](=O)[O-])C(C)(C)C(C(=O)O)C(=O)O	-9	-2	-1.9

cpd	D2 agonist	PINK1 expr mod	CtBP-E1A blk
33	-4.8	2.4%	-28
37	-7.5	0.5%	10
42	.	13%	.
41	-2.2	1.8%	10
44	0.1	.	9
43	-4.2	2.0%	4

(continued)
cpd	smiles	Six1-Eya2 blk	TRPML1 blocker	TRPML1 agonist
46	Cc1cc(-c2ccc(C)c(S(=O)(=O)N3CCOc4ccc(Cl)cc43)c2)on1	.	4	0.4
47	COc1ccc(C(C)C)cc1S(=O)(=O)NCCc1c(C)[nH]c2ccc(C)cc12	.	-8	2.4
48	O=S(=O)(c1ccc(Cl)cc1)c1nnn2c1nc(NCc1ccc3c(c1)OCO3)c1sccc12	.	20	0.0
49	CC(C)=C1C2CCC1C1C(=O)N(c3nc(-c4ccc(C(C)C)cc4)c(C)s3)C(=O)C21 (stereo not drawn)	-5	9	1.8
50	COc1ccc(Nc2nc(N3CCCCC3)nc(N3CCCCC3)n2)c(OC)c1	-1	-3	-0.1
51	O=C(NCC1CC1)NC(=O)c1ccccc1F	5	.	0.0
52	Cc1ccccc1CSc1nnc(C)c(=O)[nH]1	0	-1	-0.6

cpd	D2 agonist	PINK1 expr mod	CtBP-E1A blk
46	.	1.0%	.
47	.	?	.
48	.	0.4%	.
49	-4.6	-0.6%	0
50	-2.8	?	2
51	-1.1	0.6%	4
52	-3.9	-0.3%	2
